# HCMV UL50-53 inh: inhibitors of HCMV UL50-UL53 interaction, biochemical, HTRF. 190,000 tested, 0.15% active. normalized percent inhibition. inhibition, % (concentration not given with the values);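 active = both replicates at 50% or more, plus weaker picks with an unusually low signal ratio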;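 also: stock transfer was 100 nL into about 20 µL; 0% = negative control wells and 100% = wells with untagged competitor protein; inactives centre near -12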
# Sa growth inh: S. aureus growth inhibition at 42 and 30 °C, primary screen, LtaS inhibitor project, RN4220, two temperatures. 170,000 tested, 0.53% active. OD600, 20 h, 42 °C; hits give low values. relative growth, % (no concentration beside the values);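 active = growth at 42 °C up to 50% and 20 or more points under that at 30 °C, or under 10% at both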;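 also: 300 nL library stock went into each well; scaled to the means of positive and negative controls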
# GIV-Gai inh: inhibitors of GIV peptide binding to Galpha-i3, primary screen, biochemical, fluorescence polarization, FITC-GIV GBA peptide, rat Galphai3 | 90 min; hits give low values; scaled: aluminum fluoride 0%, vehicle 100% | percent of control (FP), % (test concentration not listed) | Guanine nucleotide-binding protein G(i) subunit alpha-3 (Rattus norvegicus), P08753 | 210,000 tested, 0.42% active;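 active = replicate mean at 85% of control or lower, very high polarization wells dropped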;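 also: wells of about 15 µL received 100 nL stock; the first replicate is given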
# Target sequence (P08753 whole entry, looked up): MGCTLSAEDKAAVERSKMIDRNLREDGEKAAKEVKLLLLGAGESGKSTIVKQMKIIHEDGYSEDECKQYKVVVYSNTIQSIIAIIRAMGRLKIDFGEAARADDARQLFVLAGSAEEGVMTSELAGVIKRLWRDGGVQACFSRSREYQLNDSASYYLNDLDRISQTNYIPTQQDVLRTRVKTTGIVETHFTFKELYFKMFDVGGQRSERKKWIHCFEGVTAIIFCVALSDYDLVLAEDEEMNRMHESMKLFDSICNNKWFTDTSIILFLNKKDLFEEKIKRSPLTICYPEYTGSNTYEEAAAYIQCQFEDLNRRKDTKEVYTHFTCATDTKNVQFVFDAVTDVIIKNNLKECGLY
# Sa growth inh second temp: second read-out of Sa growth inh, no call of its own (marks repeat the call); relative growth, %; measured here: growth at 30 °C;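 optical density after 20 h as mean of two plates; 100% = untreated growth and lower means inhibition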
# An asterisk follows results filed as active; x = no result given; & = joins results of further samples.
1	O=c1cc(-c2ccccc2)c2ccc3c(c2o1)CN(Cc1ccccc1)CO3
2	c1ccc(CCCNCc2nnc(-c3ccccc3)o2)cc1
3	CCC1(C)NC(=O)N(/N=C/c2c(F)c(F)c(F)c(F)c2F)C1=O (stereo not given)
4	COC(=O)c1ccc(N2CCN(C)CC2)c(NC(=O)C(C)(C)Oc2ccc(Cl)cc2)c1
5	Cc1ccc(C(=O)N2CCC(c3nc(-c4ccc(S(=O)(=O)N5CCCC5)cc4)no3)CC2)cc1
6	O=C(CSCc1nc(-c2ccc(F)cc2)no1)N1CCc2ccccc21
7	CC(C)(C)n1ncc2c(=O)n(Cc3cccc4ccccc34)cnc21
8	O=C(NC1CC1)c1n[nH]c(=O)c2ccccc12
9	O=S(=O)(c1ccccc1)N1CCC2(CC1)OCCO2
10	Cc1ccccc1NC(=O)C(NC1CCCCC1)C(C)C (stereo not given)

Screen / compound no. | 1 | 2 | 3 | 4 | 5 | 6 | 7 | 8 | 9 | 10
HCMV UL50-53 inh | -49 | -5 | -3 | -31 | 13 | -6 | x | -17 | -19 | -12
Sa growth inh | 97 | 103 | 87 | 92 | x | x | 111 | 105 | 90 | 96
Sa growth inh second temp | 88 | 97 | 94 | 98 | x | x | 90 | 86 | 90 | 78
GIV-Gai inh | 102 | 106 | x | 96 | 101 | 103 | 103 | x | 98 | 102

11	Cc1[nH]c(=O)n(C(C)(C)C)c(=O)c1C
12	CCOc1ccc(NC(=O)CSc2nc(=O)[nH]c3c2CCC3)cc1
13	CC(Sc1nncs1)C(=O)NCc1ccc2c(c1)OCO2 (stereo not given)
14	Nc1cccc2c1C(=O)N(C(=O)c1cccc(S(=O)(=O)N3CCOCC3)c1)C2=O
15	O=C(O)C(=O)/C=C(\O)c1ccccc1
16	Cc1cc(=O)n(C(C)C(=O)N2CCN(c3ccccc3)CC2)c2c1c(C)nn2-c1ccccc1 (stereo not given)
17	COc1cccc(-n2c(=O)c3c(C)c(C(=O)N(C)C)sc3n(CC(=O)NCCc3ccc(OC)c(OC)c3)c2=O)c1
18	O=C(O)C1CSC(c2cccs2)N1 (stereo not given)
19	Cn1c(=O)c(-c2c(Cl)cccc2Cl)cc2cnc(Nc3ccc(N4CCOCC4)cc3)nc21
20	CCC(=O)Nc1ccc2c(c1)C(=O)OC2

Screen / compound no. | 11 | 12 | 13 | 14 | 15 | 16 | 17 | 18 | 19 | 20
HCMV UL50-53 inh | -10 | x | -21 | -43 | -12 | 3 | x | -22 | -20 | -6
Sa growth inh | 68 | 90 | 100 | 90 | 93 | 97 | 97 | 108 | x | 104
Sa growth inh second temp | 86 | 90 | 92 | 93 | 91 | 108 | 89 | 89 | x | 87
GIV-Gai inh | x | 102 | x | x | 94 | 102 | 99 | 106 | 103 | 96

21	Cc1ccc(N2C(=O)CSC23C(=O)N(CC(=O)NC2CCCCC2)c2ccccc23)cc1C (stereo not given)
22	CCS(=O)(=O)Nc1ccc2nc(N3CCN(c4ccccc4)CC3)cc(C(=O)O)c2c1
23	COc1ccc(-c2nc(CSc3nnc(C)n4c3cc3oc(C)cc34)c(C)o2)cc1OC
24	Cc1ccc(C(=O)COC(=O)CC2Oc3ccccc3NC2=O)c(C)c1 (stereo not given)
25	O=C(Nc1ccccc1)c1cc2ccccc2c(=O)o1
26	O=C1CCn2nc(-c3ccccc3)cc2N1
27	Cc1c(C(=O)NCC(c2ccccc2)c2c[nH]c3ccccc23)oc2ccc(Cl)cc12 (stereo not given)
28	COc1ccc(OC)c(NC(=O)N2Cc3c(sc4c3CCN(C)C4)-n3cccc3C2c2ccc(F)cc2)c1 (stereo not given)
29	Cc1ccc(-c2nnc(-c3ccncc3)o2)c(C)c1
30	CC(=O)N1CCN(c2ccccc2N)CC1

Screen / compound no. | 21 | 22 | 23 | 24 | 25 | 26 | 27 | 28 | 29 | 30
HCMV UL50-53 inh | x | -74 | x | -23 | x | -21 | -26 | 4 | -12 | -8
Sa growth inh | 85 | x | 116 | 89 | 114 | x | x | x | 101 | 116
Sa growth inh second temp | 93 | x | 97 | 92 | 93 | x | x | x | 89 | 90
GIV-Gai inh | 105 | 101 | 107 | x | 103 | 102 | 105 | 110 | 99 | 105

31	CCSc1nc(N(C)C)nc(N2CCOCC2)n1
32	CCN(CC)C(=O)c1sc2c(c1C)c(=O)n(-c1ccc(Cl)c(Cl)c1)c(=O)n2Cc1cc(=O)n2ccccc2n1
33	CCCNC(=O)OCN1C(=O)c2ccc(N)cc2C1=O
34	Cc1ccc(CNC(=O)CCCN2C(=O)C(c3ccccc3)Oc3cccnc32)cc1 (stereo not given)
35	COc1ccc(C2=NN(C(C)=O)C(c3cc4ccc(C)cc4nc3Cl)C2)cc1OC (stereo not given)
36	Cc1ccc(CSc2nnc([C@@H](N)C(C)C)o2)cc1
37	CC(NC1=NCCN1)C(=O)O (stereo not given)
38	Cc1sc(N)nc1C12CC3CC(CC(C3)C1)C2
39	CCn1c(=O)cc(SCC(=O)Nc2ccc(S(N)(=O)=O)cc2)c2ccccc21
40	COc1ccc(CCn2c(=O)c3ccccc3n(CC(=O)Nc3cccc(C)c3)c2=O)cc1OC

Screen / compound no. | 31 | 32 | 33 | 34 | 35 | 36 | 37 | 38 | 39 | 40
HCMV UL50-53 inh | 2 | x | -87 | -205 | -4 | 8&-24 | -1 | x | -7 | -1
Sa growth inh | 70 | 105 | 106 | x | x | 101&101 | 99 | 72 | x | 113
Sa growth inh second temp | 94 | 93 | 83 | x | x | 92&78 | 94 | 81 | x | 96
GIV-Gai inh | 98 | 106 | 104 | 99 | 101 | 107&104 | 105 | 109 | 105 | 107

41	COc1ccccc1NC(=O)CSc1nnc2c3c4c(sc3nc(SC)n12)CN(C)CC4
42	O=C(NCCc1ccccc1)c1ccc2c(c1)N(Cc1ccc(Cl)cc1)C(=O)c1ccccc1S2(=O)=O
43	CCn1c(C)cc2c(c1=O)C(c1cccc(OC)c1)C(C#N)=C(N)O2 (stereo not given)
44	CCSC1=C(C#N)C(=O)NC(C)S1 (stereo not given)
45	CCCCN(C)S(=O)(=O)c1ccc(-c2cc(C(F)(F)F)no2)s1
46	CCOc1ccc(N2CC(c3nc4ccccc4n3CCOc3ccccc3)CC2=O)cc1 (stereo not given)
47	COC(=O)Nc1nc2ccc(C(=O)c3ccccc3)cc2[nH]1
48	CCOC(=O)c1sc(N)c(C#N)c1COC(=O)Cc1n[nH]c(=O)c2ccccc12
49	O=c1oc2ccccc2cc1-c1nnc(Nc2ccc(Cl)cc2Cl)s1
50	O=C(O)CN1C(=O)/C(=C\c2ccc(-c3ccc(I)cc3)o2)SC1=S

Screen / compound no. | 41 | 42 | 43 | 44 | 45 | 46 | 47 | 48 | 49 | 50
HCMV UL50-53 inh | -9 | -34 | -36 | 6 | -21 | -36 | -28&-42&-10&-22&-19&-36 | -28 | -35 | -22
Sa growth inh | 93 | 94 | 101 | 101 | 85 | 97 | 98&91&75 | 102 | 92 | x
Sa growth inh second temp | 71 | 82 | 83 | 90 | 91 | 92 | 92&86&93 | 71 | 85 | x
GIV-Gai inh | 122 | 103 | 98 | 102 | 102 | 103 | 95 | x | 108 | 161

51	CCc1nc2ccc(C(=O)NCc3ccc(OC)c(OC)c3)cc2nc1CC
52	O=S(=O)(Nc1ccc2ccccc2n1)c1ccc2c(c1)CCO2
53	Cc1cc2occ(CC(=O)OCC(=O)c3ccc4c(c3)NC(=O)CO4)c2cc1C
54	O=C(NCc1ccc(Cl)cc1)c1cc(-c2ccc(F)cc2)on1
55	CC1CCCCN1C(=O)COC(=O)c1ccc2ccccc2n1 (stereo not given)
56	COc1ccc(N2C(=O)C3N=NN(Cc4ccc(C)cc4)C3C2=O)cc1OC (stereo not given)
57	CC(C)(C)N=Cc1nc(-c2ccccc2)oc1O
58	CC(=O)Nc1ccc(Br)cc1-c1nc2ccccc2[nH]c1=O
59	CC1(O)CS(=O)(=O)CC1(C)O (stereo not given)
60	Clc1ccccc1CNc1nc2ccccc2c2nc(-c3cccnc3)nn12

Screen / compound no. | 51 | 52 | 53 | 54 | 55 | 56 | 57 | 58 | 59 | 60
HCMV UL50-53 inh | x | -6 | 26 | -20 | -80 | -9 | -30 | -3 | -10 | -17
Sa growth inh | 116 | 95 | 107 | 101 | 98 | x | 96 | 96 | 98 | 93
Sa growth inh second temp | 85 | 88 | 104 | 92 | 90 | x | 98 | 84 | 90 | 85
GIV-Gai inh | 108 | 103 | x | 103 | x | 98 | x | 105 | 99 | 102

61	O=C(Nc1ccc(O)cc1)c1cccc(S(=O)(=O)N2CCOCC2)c1
62	Cc1ccc(C)c(C(=O)Cn2nc3n(CC(C)C)c(=O)c4ccc(C(=O)NC(C)C)cc4n3c2=O)c1
63	O=C(Nc1c[nH]c2ccccc12)NC1CCCC1
64	CC1CCCCC1NC(=O)c1ccc2ccccc2n1 (stereo not given)
65	COc1ccc(CCN(Cc2cc3cc(C)ccc3[nH]c2=O)C(=O)N2CCCC2)cc1OC
66	C=CCN1C(=O)/C(=C\c2ccc(O)c(OC)c2)C(=O)NC1=S
67	CCN1CCN(CCN)CC1
68	COc1ccc(-c2cc3ccc(O)c(CN4CCC(C)CC4)c3oc2=O)cc1
69	COc1ccc2cc(-c3nc(-c4ccc(N(C)C)cc4)no3)c(=O)oc2c1
70	O=S1(=O)CC2SC(=S)N(c3cccc(Br)c3)C2C1 (stereo not given)

Screen / compound no. | 61 | 62 | 63 | 64 | 65 | 66 | 67 | 68 | 69 | 70
HCMV UL50-53 inh | 2 | -27 | -24 | -12 | -11 | x | -2 | x | x | 0
Sa growth inh | 108 | x | 103 | 90 | 82 | 107 | 83 | 91 | 121 | 89
Sa growth inh second temp | 97 | x | 62 | 92 | 75 | 93 | 89 | 91 | 91 | 95
GIV-Gai inh | 107 | 106 | 111 | x | 98 | 99 | 97 | 121 | 99 | x

71	CN(Cc1cccnc1)C(=O)CNC(=O)c1ccc(Cl)cc1Cl
72	Cc1ccc2oc(-c3ccc(Cl)cc3)cc(=O)c2c1
73	Cc1ccc(C(=O)NCC(c2cccnc2)S(=O)(=O)c2ccc(F)c(C)c2)cc1 (stereo not given)
74	O=c1c2ccccc2nc(/C=C/c2c[nH]c3ccccc23)n1CCc1ccccc1
75	COc1cccc(CNC(=O)c2cc(C)nc3c2c(C)nn3-c2cccc(F)c2)c1
76	O=C(Nc1ccc2c(c1)CCCN2C(=O)c1cccs1)c1ccccc1Cl
77	Cc1cc2nn(CN3CCCC(C)C3)c(=S)n2c2ccccc12 (stereo not given)
78	Cn1nnnc1SCCNCc1ccccc1OCc1ccccc1F
79	CCCN1CCN(C(=O)Cn2c(-c3cccs3)cc3cc(F)ccc32)CC1
80	COc1ccc(C(C)(O)C(CN2CCCC2)c2ccccc2)cc1 (stereo not given)
81	Cc1ccc(N2C(=O)NC(=O)/C(=C\c3cc4c(cc3Br)OCO4)C2=O)cc1

Screen / compound no. | 71 | 72 | 73 | 74 | 75 | 76 | 77 | 78 | 79 | 80 | 81
HCMV UL50-53 inh | -12 | -10 | -27 | 12 | x | x | -33 | 21 | -46 | -17 | -18
Sa growth inh | 100 | 101 | x | x | 102 | 78 | 94 | 90 | 96 | x | x
Sa growth inh second temp | 94 | 77 | x | x | 100 | 71 | 82 | 92 | 93 | x | x
GIV-Gai inh | x | x | 109 | 98 | 107 | 99 | x | 111 | 101 | 100 | 104

# 15 compounds out of the list, sorted by count of non-hydrogen atoms, low to high:
67	CCN1CCN(CCN)CC1
70	O=S1(=O)CC2SC(=S)N(c3cccc(Br)c3)C2C1 (stereo not given)
72	Cc1ccc2oc(-c3ccc(Cl)cc3)cc(=O)c2c1
64	CC1CCCCC1NC(=O)c1ccc2ccccc2n1 (stereo not given)
66	C=CCN1C(=O)/C(=C\c2ccc(O)c(OC)c2)C(=O)NC1=S
71	CN(Cc1cccnc1)C(=O)CNC(=O)c1ccc(Cl)cc1Cl
80	COc1ccc(C(C)(O)C(CN2CCCC2)c2ccccc2)cc1 (stereo not given)
61	O=C(Nc1ccc(O)cc1)c1cccc(S(=O)(=O)N2CCOCC2)c1
78	Cn1nnnc1SCCNCc1ccccc1OCc1ccccc1F
81	Cc1ccc(N2C(=O)NC(=O)/C(=C\c3cc4c(cc3Br)OCO4)C2=O)cc1
60	Clc1ccccc1CNc1nc2ccccc2c2nc(-c3cccnc3)nn12
73	Cc1ccc(C(=O)NCC(c2cccnc2)S(=O)(=O)c2ccc(F)c(C)c2)cc1 (stereo not given)

Screen / compound no. | 67 | 70 | 72 | 64 | 66 | 71 | 80 | 61 | 78 | 81 | 60 | 73
HCMV UL50-53 inh | -2 | 0 | -10 | -12 | x | -12 | -17 | 2 | 21 | -18 | -17 | -27
Sa growth inh | 83 | 89 | 101 | 90 | 107 | 100 | x | 108 | 90 | x | 93 | x
Sa growth inh second temp | 89 | 95 | 77 | 92 | 93 | 94 | x | 97 | 92 | x | 85 | x
GIV-Gai inh | 97 | x | x | x | 99 | x | 100 | 107 | 111 | 104 | 102 | 109

75	COc1cccc(CNC(=O)c2cc(C)nc3c2c(C)nn3-c2cccc(F)c2)c1
65	COc1ccc(CCN(Cc2cc3cc(C)ccc3[nH]c2=O)C(=O)N2CCCC2)cc1OC
62	Cc1ccc(C)c(C(=O)Cn2nc3n(CC(C)C)c(=O)c4ccc(C(=O)NC(C)C)cc4n3c2=O)c1

Screen / compound no. | 75 | 65 | 62
HCMV UL50-53 inh | x | -11 | -27
Sa growth inh | 102 | 82 | x
Sa growth inh second temp | 100 | 75 | x
GIV-Gai inh | 107 | 98 | 106

# Bioassay records as filed in PubChem BioAssay.
